# Screening data from PubChem.
# Methyltransferases: Primary Screen for Target Class Profiling of Small Molecule Inhibitors of Methyltransferases; purified enzyme, MTase-Glo SAH luminescence; hits give low values; calls only at 40 µM; actives 3.9% (n = 25,000); active = -50% or lower on at least one of six enzymes; inconclusive = the cases between; inactive = as a rule above -30% on all six;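 note: enzymes were COMT GAMT GNMT HNMT NNMT and PNMT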
#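 Each enzyme was reacted with SAM and its substrate, with compounds tested once at 40 uM; SAH formed was read by MTase-Glo luminescence.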
# Calls only; i = inactive; ? = inconclusive; + = active, no number; ! = not active in a repeat. % is set by controls: 0 for no effect and ±100 for the full control effect.
Structure | Methyltransferases
CCOc1ccccc1CN1C(=O)c2cc3ccccc3n2CC1(C)C(=O)NC1CCCCC1 (stereo unspecified) | i
CN1C(=O)c2cc(C(=O)NCc3cccc(F)c3)nn2CC1(C)C(=O)NC1CCCC1 (stereo unspecified) | i
COC1CC(OC2CCC3(C)C(=CCC4C3CCC3(C)C(C(C)O)CCC43O)C2)OC(C)C1OC1OC(C)C(OC2OC(COC3OC(COC4OC(CO)C(O)C(O)C4O)C(O)C(O)C3O)C(O)C(O)C2O)C(OC)C1O (stereo unspecified) | i
Cc1cc(C)n(-c2nc3cc(Cl)ccc3nc2Nc2ccc3c(c2)n(C)c(=O)n3C)n1 | i
O=C(Nc1cccc(Cl)c1)N1Cc2c(sc3c2CCCC3)-n2cccc2C1c1cccc(F)c1 (stereo unspecified) | i
COc1cc2c(NC3CCN(C(C)C)CC3)nc(N3CCC(F)(F)CC3)nc2cc1OCCCN1CCCC1 | +
O=S(=O)(Cc1ccccc1)N1CCCC(Cc2noc(-c3cccnc3)n2)C1 (stereo unspecified) | i
Cc1ccc(-c2ncccc2CNS(=O)(=O)c2cc(F)ccc2C)cc1 | i
O=C(O)c1c[nH]c2c(ccc3ccccc32)c1=O | ?
CCCn1c(=O)c2ccc(C(=O)NC(C)C)cc2n2c(=O)n(CC(=O)Nc3cc(F)ccc3F)nc12 | i
COCCN1CC2(CCC1=O)CCN(C(=O)[C@@H]1C[C@@H](O)CN1)CC2 | i
c1cc2c(cc1-c1n[nH]c(C3CCOCC3)n1)OCO2 | i
O=C1NCCOCCCN(S(=O)(=O)c2ccccc2)[C@H]2CCCC[C@@H]12 | i
Cc1ccc(CNC(=O)C(C)n2ccc3cc(S(=O)(=O)N4CCCC4)ccc32)cc1 (stereo unspecified) | i
O=C(Nc1ccccc1F)C1CCCN(Cc2cccc(-c3cccs3)c2)C1 (stereo unspecified) | i
O=C(COC(=O)C(Cc1c[nH]c2ccccc12)NC(=O)c1ccc(Br)cc1)c1ccc(Cl)cc1 (stereo unspecified) | i
O=C(Cn1ccc2cc(S(=O)(=O)N3CCCCC3)ccc21)NCc1cccc(F)c1 | i
CC1(C(=O)NC2CCCCCC2)Cn2nc(-c3ccco3)cc2C(=O)N1CCc1ccc(Cl)cc1 (stereo unspecified) | i
CCCCCC(=O)N1CCC[C@H]1C(=O)N[C@@H](Cc1ccc(O)cc1)C(=O)OC | i
CC(C)n1c(=O)c2ccc(C(=O)NC3CCCC3)cc2n2c(=O)n(Cc3ccccc3Cl)nc12 | i
COc1cccc(C2c3cccn3-c3sc4c(c3CN2C(=O)Nc2cc(F)ccc2F)CCCC4)c1 (stereo unspecified) | i
CCOC(=O)c1ccc(NC2CCCCC2)c(N)c1 | i
C[C@@H]1C[C@H]2OC(=O)[C@@]3(C)CCC[C@](C)(C23)[C@@]1(O)CCC1=CC(=O)OC1O (stereo partly specified) | i
CCC(C)NC(=O)Cn1nc2n(Cc3ccc(C)cc3)c(=O)c3ccc(C(=O)NC(C)C)cc3n2c1=O (stereo unspecified) | i
COc1ccccc1CNC(=O)C1(C)Cn2nc(-c3ccccc3)cc2C(=O)N1Cc1ccc(C)cc1 (stereo unspecified) | i
Cc1ccc(N2CCN(S(=O)(=O)c3ccc4[nH]c5c(c4c3)CCCC5)CC2)c(C)c1 | i
Cc1ccc(S(=O)(=O)c2nnn3c2nc(N2CCC(C(N)=O)CC2)c2ccccc23)cc1C | i
O=c1c2ccccc2n2c(-c3ccccc3O)nnc2n1Cc1ccc(F)cc1 | i
COc1ccc(NC(=O)CCc2nnc3n(Cc4ccccc4)c(=O)c4ccccc4n23)cc1OC | i
COc1ccc(CC2(CO)CCN(c3cc(OC)nc(N)n3)CC2)cc1 | i
COC(=O)c1cc2n(n1)CC(C)(C(=O)NC1CCC(C)CC1)N(c1ccc(F)cc1C)C2=O (stereo unspecified) | i
Cc1ccc(CNC(=O)Cn2nc3n(CCC(C)C)c(=O)c4ccc(C(=O)NC(C)C)cc4n3c2=O)cc1 | i
CCCC1c2ccc(C)n2CCN1C(=O)Nc1ccccc1CC (stereo unspecified) | i
COc1ccc(NC(=O)CC2CCCCN(C)C2=O)cc1OC (stereo unspecified) | i
CCC(C)NC(=O)c1ccc2c(=O)n(C3CC3)c3nn(CC(=O)Nc4ccccc4F)c(=O)n3c2c1 (stereo unspecified) | i
O=Nc1c(-c2c(O)[nH]c3ccccc23)[nH]c2ccccc12 | ?
COCCCNc1nc2c(S(=O)(=O)c3cc(C)ccc3C)nnn2c2ccccc12 | i
CCc1cc2c(cc3n2CC(C(=O)NC2CCCCC2)(c2ccccc2)N(Cc2ccccc2)C3=O)s1 (stereo unspecified) | i
COc1cc(C)c(C(=O)O[C@H]2[C@@H](O)[C@H](n3ccc(=O)[nH]c3=O)O[C@@H]2CO)c(OC)c1 | i
Oc1ccccc1CN1CC(CNc2cccnc2)C2(C1)CN(c1ccccc1)C2 (stereo unspecified) | ?
O=C(NCc1ccco1)C1CCc2nc(N3CCN(C(=O)C4CCC4)CC3)sc2C1 (stereo unspecified) | i
CC(C)Cn1c(=O)c2cc(F)ccc2n2c(SCc3cccc(Cl)c3)nnc12 | i
CCc1nc(-c2ccc(OC3CCN(C(=O)Cc4c[nH]c5ccccc45)C3)cc2)no1 (stereo unspecified) | i
O=C1c2ccccc2CN1C1CCN(Cc2cccc3ccccc23)CC1 | i
CC(C)C(=O)N1CCN(c2nc3c(s2)CC(C(=O)NCc2ccco2)CC3)CC1 (stereo unspecified) | i
CCNC(=O)[C@@H]1C[C@H](NC(=O)Cc2cccc(F)c2F)CN1C1CCCC1 | i
COc1ccc2cc3n(c2c1)CC(C)(C(=O)NC1CCCC1)N(Cc1cccs1)C3=O (stereo unspecified) | i
C[S+](=O)([O-])CCn1ncc2cc(OCC3CCN(Cc4ccccc4)CC3)ccc21 | ?
CCCCn1c(-c2ccccc2)nc(-c2ccccc2)c1CN(Cc1ccc2c(c1)OCO2)Cc1ccc2c(c1)OCO2 | ?
COCC(c1ccc(C(F)(F)F)cc1)N1CCN(C2(C)CCN(C(=O)c3c(C)ncnc3C)CC2)CC1C (stereo unspecified) | ?

# The results go on:
Structure | Methyltransferases
COc1cccc(N2CCN(C(=O)CCc3nnc4n(Cc5ccccc5)c(=O)c5ccccc5n34)CC2)c1 | i
Cc1cccc(NC(=O)Cn2c(=O)oc3cc(S(=O)(=O)N4CC(C)CC(C)C4)ccc32)c1C (stereo unspecified) | i
Cc1ccc(N2C(=O)c3cc(-c4ccco4)nn3CC2(C)C(=O)NC2CCCCCC2)cc1 (stereo unspecified) | i
O=c1[nH]nc2n1CCN(C1CCOCC1)CC2 | i
CC(C)CN1CC2(C1)C(=O)N(CCCN1CCCC1=O)C(=O)[C@@H]1C[C@@H](O)CN12 | i
CC(C)N(CCCNC(=O)Nc1ccc(C(C)(C)C)cc1)C[C@H]1O[C@@H](n2ccc3c(N)ncnc32)[C@H](O)[C@@H]1O | +!
COC(=O)c1cccc(NC(=O)N2Cc3c(sc4c3CCCC4)-n3cccc3C2c2cc(F)cc(F)c2)c1 (stereo unspecified) | i
CCC(C(=O)NC(C)C)n1ccc2cc(S(=O)(=O)N3CCCCC3)ccc21 (stereo unspecified) | i
CC(=O)O[C@@H]1[C@@H](OC(C)=O)[C@H](C)O[C@@H](O[C@H]2[C@@H]3C=CO[C@@H](O[C@@H]4O[C@H](CO)[C@@H](O)[C@H](O)[C@H]4O)[C@@H]3[C@@]3(CO)O[C@@H]23)[C@@H]1OC(=O)/C=C/c1ccccc1 | i
O=C1NN=C(c2ccccn2)C12CCN([S+](=O)([O-])c1cccc(C(F)(F)F)c1)CC2 | i

# Following part:
compound | Methyltransferases
COc1c(OC2OC(CO)C(O)C(O)C2O)ccc(O)c1C(=O)OCc1ccccc1O[C@@H]1O[C@H](CO)[C@@H](O)[C@H](O)[C@H]1O (stereo partly specified) | i
COC(=O)[C@H](O)[C@H]1C(C)(C)[C@H](OC(=O)C(C)C)[C@@]2(O)C(=O)[C@]1(C)C1CC[C@]3(C)C(CC(=O)O[C@H]3c3ccoc3)[C@]13O[C@@H]32 (stereo partly specified) | i
CC1CC(=O)C2=C(C1)C1OC1C1(O)C2C(=O)c2cccc(O)c2C1O (stereo unspecified) | i
CCc1cc2c(cc3n2CC(C)(C(=O)NC2CCCCCC2)N(C(C)CCc2ccco2)C3=O)s1 (stereo unspecified) | i
O=C1C(Cl)=C(N2CCOCC2)C(=O)N1c1ccc(Cl)c(Cl)c1 | i
COCC1CN(C)CC12CCN(C(=O)c1cc3ccccc3[nH]1)CC2 (stereo unspecified) | i
Cc1cc(C(=O)NC[C@@H]2OC[C@@]3(C)[C@H]4CC[C@@H](O)[C@@H](CC(=O)N5CCCC5)[C@]4(C)CC[C@H]3O2)no1 | i
O=C(Nc1ccncc1)c1cc([N+](=O)[O-])ccc1Cl | i

# In the list so far, 8 contain a Cl atom:
compound | Methyltransferases
Cc1cc(C)n(-c2nc3cc(Cl)ccc3nc2Nc2ccc3c(c2)n(C)c(=O)n3C)n1 | i
O=C(Nc1cccc(Cl)c1)N1Cc2c(sc3c2CCCC3)-n2cccc2C1c1cccc(F)c1 (stereo unspecified) | i
O=C(COC(=O)C(Cc1c[nH]c2ccccc12)NC(=O)c1ccc(Br)cc1)c1ccc(Cl)cc1 (stereo unspecified) | i
CC1(C(=O)NC2CCCCCC2)Cn2nc(-c3ccco3)cc2C(=O)N1CCc1ccc(Cl)cc1 (stereo unspecified) | i
CC(C)n1c(=O)c2ccc(C(=O)NC3CCCC3)cc2n2c(=O)n(Cc3ccccc3Cl)nc12 | i
CC(C)Cn1c(=O)c2cc(F)ccc2n2c(SCc3cccc(Cl)c3)nnc12 | i
O=C1C(Cl)=C(N2CCOCC2)C(=O)N1c1ccc(Cl)c(Cl)c1 | i
O=C(Nc1ccncc1)c1cc([N+](=O)[O-])ccc1Cl | i

# (next part)
compound | Methyltransferases
O=C(NCCc1ccccc1)c1ccc2c(=O)nc3c(-c4ccccc4F)n[nH]n3c2c1 | i
CCCn1c(=O)c2ccc(C(=O)NCC(C)C)cc2n2c(=O)n(Cc3ccccc3F)nc12 | i
CC(=O)N[C@H](CC(C)C)c1nc(-c2ccc(C)nn2)no1 | i
CNc1cc(C)nc(N2CC[C@H](N3CCOCC3)[C@H](CCC(=O)O)C2)n1 | i
CCOc1ccc(CNC(=O)c2cc3n(n2)CC(C)(C(=O)NCCC(C)C)N(C)C3=O)cc1 (stereo unspecified) | i
Cc1ccc(CN2C(=O)c3cc(-c4ccccc4)nn3CC2(C)C(=O)NCc2ccccc2)o1 (stereo unspecified) | i
O=[S+]([O-])(Nc1cccnc1)c1ccc2c(c1)OCCN(Cc1cncnc1)C2 | i
COCCN1CC2CN(C(=O)CCCc3ccccc3)CC(C1)O2 | i
CCCN1C(=O)c2cc(C(=O)NCCc3ccc(SC)cc3)nn2CC1(C)C(=O)NC1CCCC1 (stereo unspecified) | i
CN1C(=O)c2cc(C(=O)N3CCN(Cc4ccccc4)CC3)nn2CC1(C)C(=O)NC1CCCCC1 (stereo unspecified) | i
CC1CCCN1c1ncnc2c1CN(c1ccccc1F)C(=O)CN2C (stereo unspecified) | i
CCOC(=O)Cn1cccc1-c1nc(-c2ccc(OC)cc2)c(-c2ccc(OC)cc2)s1 | +
COc1cccc(-c2ccccc2NC(=O)C2CCN(CC=C(C)C)CC2)c1 | +
COc1ccc(-c2nnc3n(Cc4ccc(C)cc4)c(=O)c4ccccc4n23)cc1OC | i
COCCN1C(=O)N(C)C(=O)C12CCN(Cc1cc(F)ccc1F)C2 (stereo unspecified) | i
CC(=O)O[C@H]1C[C@@H](O)C(C)(C)C2C[C@@H](OC(C)=O)[C@@]3(C)C4=CCC(C(CO)CC(O)C5OC5(C)C)[C@]4(C)CCC3[C@]21C (stereo partly specified) | i
O=C(COc1ccccc1)NC1CCc2nnc(C3CC3)n2CC1 (stereo unspecified) | i
CC(C)Cn1c(=O)n(C)c(=O)c2[nH]cnc21 | i
O=C(Nc1ccc2[nH]ncc2c1)C1CCC1 | i
CC(C)(C)CC(=O)N1CC[C@@H](CC(=O)O)[C@@H](CCN2CCN(c3ccccn3)CC2)C1 | i
CCN1C(=O)c2cc(C(=O)NCc3ccccc3OC)nn2CC1(C)C(=O)NC1CCCC1 (stereo unspecified) | i
COc1ccccc1CNC(=O)C1(C)Cn2c(cc3ccccc32)C(=O)N1Cc1cccc(Br)c1 (stereo unspecified) | i
CN1C(=O)N(c2cc(Cl)cc(Cl)c2)C(=O)[C@@]1(C)Cc1ccc(Br)cc1 | i
CCC(C)NC(=O)c1ccc2c(=O)n(CCC(C)C)c3nn(Cc4ccccc4F)c(=O)n3c2c1 (stereo unspecified) | i

# Entries from the list above that have a COOH group, in the order listed:
compound | Methyltransferases
O=C(O)c1c[nH]c2c(ccc3ccccc32)c1=O | ?
CNc1cc(C)nc(N2CC[C@H](N3CCOCC3)[C@H](CCC(=O)O)C2)n1 | i
CC(C)(C)CC(=O)N1CC[C@@H](CC(=O)O)[C@@H](CCN2CCN(c3ccccn3)CC2)C1 | i

# The list goes on:
compound | Methyltransferases
CCOC(=O)c1cc2n(n1)CC(C)(C(=O)NC1CCCCCC1)N(c1ccc(C)cc1C)C2=O (stereo unspecified) | i
CSc1cccc(NC(=O)N2CCn3cccc3C2C(C)C)c1 (stereo unspecified) | i
Cc1cnc(CCNC(=O)c2n[nH]c(=O)c3ccccc23)n1C1CCCCC1 | +
CC(C(=O)NCc1cccnc1)n1ccc2cc(S(=O)(=O)N3CCCC3)ccc21 (stereo unspecified) | i
Cc1ccccc1Cn1nc2n(Cc3ccccc3)c(=O)c3ccc(C(=O)NC(C)C)cc3n2c1=O | i
COc1ccc2c(Oc3ccc(NC(=O)c4c(C)n(CC(C)(C)O)n(-c5ccccc5)c4=O)cc3F)ccnc2c1 | +
CC(C)Oc1ccc(CN2C(=O)c3oc4ccccc4c3OCC2(C)C(=O)NC2CCCC2)cc1 (stereo unspecified) | i
CN(Cc1ccccc1)C(=O)[C@H]1C[C@@H](O)[C@H](O)[C@@H]2N=C(Nc3ccc(-n4cccn4)cc3)S[C@@H]21 | i
CCCN1C(=O)c2cc3sccc3n2CC1(C)C(=O)NC1CCC(C)CC1 (stereo unspecified) | i

# These rows are one share of the data, so the mix of outcomes need not match the whole.
